Compound activity deposited in PubChem BioAssay by several laboratories.
Arbovirus inh: blocks arbovirus infection | actives 0.37% (n = 200,000) | AID 1251 | arbovirus infection cell-based antiviral screen | inhibition, % at 10 µM;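 active = inhibition from about 30%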;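 also: bluetongue infection of BSR cells; cell survival read as ATP light after 72 h; 0% = infected wells without compound and 100% = uninfected wells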
Mtb bLac sens: beta-lactam sensitization of Mtb H37Rv | M. tuberculosis H37Rv growth with meropenem, percent inhibition; hits of this screen are not shown here | inhibition, % at 25 µM | actives 0.27% (n = 330,000);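 active = about 74% or more and at least 40 points above the plate without the antibiotic, then above 30% in a dose series; inconclusive = first-round hits that could not be retested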;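 also: growth measured after seven days incubation then overnight dye step; 0% = bacteria only wells and 100% = bacteria with antibiotic; twin plates without the antibiotic show which effects depend on it; some results filed as inactive read as strong as hits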
Mtb H37Rv: M. tuberculosis H37Rv growth inhibitors, H37Rv strain (AID 1626); M. tuberculosis H37Rv growth inhibition; higher % means a stronger effect; one-dose inhibition, % at 10 µM; IC50 in µM for titrated hits; actives 0.95% (n = 220,000);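 active = confirmed in a dose series; inconclusive = inhibition above 80% but not taken into the dose series; inactive = below 80% or under 30% at every dose of the series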;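 also: bacteria incubated seven days before Alamar blue readout; 0% = bacteria only wells and 100% = bacteria with antibiotic wells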
RecA intein inh: blocks M. tuberculosis RecA intein splicing; AID 2221; P9WHJ3; actives 0.75% (n = 290,000); inhibition, %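 (about 9 µM by stock and volumes)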; cell-free RecA intein splicing, fluorescence; in the data active = inhibition above about 30%; inconclusive = no clear call, values can overlap the other calls;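 also: 0% = vehicle wells and 100% = reference inhibitor control wells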
Target sequence (P9WHJ3 whole entry, looked up): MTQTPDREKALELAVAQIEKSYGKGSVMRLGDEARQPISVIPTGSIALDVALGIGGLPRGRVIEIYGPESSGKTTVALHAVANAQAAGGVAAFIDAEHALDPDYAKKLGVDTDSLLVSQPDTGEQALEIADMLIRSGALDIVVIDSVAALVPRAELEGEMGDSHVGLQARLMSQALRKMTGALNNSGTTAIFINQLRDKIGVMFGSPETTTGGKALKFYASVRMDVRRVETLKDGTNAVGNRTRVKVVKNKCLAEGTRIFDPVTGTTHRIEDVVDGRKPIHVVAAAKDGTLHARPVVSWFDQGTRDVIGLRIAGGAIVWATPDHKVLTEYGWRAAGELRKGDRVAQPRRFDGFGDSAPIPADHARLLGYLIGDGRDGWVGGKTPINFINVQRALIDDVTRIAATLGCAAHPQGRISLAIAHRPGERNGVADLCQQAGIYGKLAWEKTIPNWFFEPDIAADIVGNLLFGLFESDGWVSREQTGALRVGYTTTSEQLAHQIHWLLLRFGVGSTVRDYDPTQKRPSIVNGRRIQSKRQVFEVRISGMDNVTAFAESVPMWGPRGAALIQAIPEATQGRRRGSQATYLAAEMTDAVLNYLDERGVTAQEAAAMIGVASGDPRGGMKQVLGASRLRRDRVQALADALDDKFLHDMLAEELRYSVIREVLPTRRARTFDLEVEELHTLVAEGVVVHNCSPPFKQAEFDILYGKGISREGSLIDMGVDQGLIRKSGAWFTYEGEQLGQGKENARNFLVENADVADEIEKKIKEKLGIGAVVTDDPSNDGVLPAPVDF
YopH inh: blocks Yersinia enterocolitica YopH tyrosine phosphatase; actives 0.16% (n = 140,000); AID 898; fluorescence Ex485/Em525; inhibition, %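 (about 10 µM by stock and volumes)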;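 active = inhibition of 50% or more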;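 also: controls were vehicle for no effect and minimum signal wells for full effect; inactives centre near -20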
Arbovirus inh repeat: second read-out of Arbovirus inh, no call of its own (marks repeat the call); inhibition, %; measured here: 10K subset replicate screen; many hits read low in the repeat;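 first of two repeat runs on a subset; 0% = infected and 100% = uninfected wells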
Active calls of the source: *; ? = inconclusive; . = no result given.

SMILES	Arbovirus inh	Mtb bLac sens	Mtb H37Rv	RecA intein inh	YopH inh	others
COc1ccc(-n2nc(C(=O)NCC(=O)N3CCCCCC3)c3ccccc3c2=O)cc1OC	.	-6	.	-0.6	.
CCOc1cc(C(=O)OC(C)C(=O)Nc2ccc(S(N)(=O)=O)cc2)ccc1OCC(=O)N1CCOCC1 (centres undefined)	.	-2	.	1.8	.
COc1ccccc1N(CC(=O)NCC1CCCO1)C(=O)CNS(=O)(=O)c1ccc(Cl)cc1 (centres undefined)	.	-5	-5%	-1.1	.
O=C1NC(=O)[C@]2(Cc3ccccc3N3CCN(c4ccccc4)CC32)C(=O)N1Cc1ccccc1 (some centres undefined)	7	6	-8%	5.3	-34
COc1ccc(NC(=O)c2oc3ccccc3c2NC(=O)C2CC2)c(OC)c1	.	?	.	-2.6	.
O=C(CN1C(=O)c2ccccc2S1(=O)=O)Nc1ccc(S(=O)(=O)N2CCCCC2)cc1	0	0	-8%	15	-81
COc1ccc(C2=NS(=O)(=O)N(C)C(C(=O)Nc3ccc(C)cc3)=C2)cc1	.	0	.	0.6	.
Cc1cc(=O)n2nc(N3CCCC3C(=O)Nc3ccc(C(C)C)cc3)sc2n1 (centres undefined)	.	-8	.	0.4	.
COc1cc(OC)c(OC)cc1C#N	1	6	1%	-1.5	.	Arbovirus inh repeat=9
Cc1ccccc1CC1(CO)CCCN(C(=O)c2ccc3ncccc3c2)C1 (centres undefined)	15	-2	-1%	-3.2	.
O=C(COC(=O)C1CC1)NCCNC(=O)COC(=O)C1CC1	.	-1	.	-0.9	.
O=C(N/N=C/c1cccs1)c1ccc(NC(=O)c2ccccc2Cl)cc1	0	-3	-3%	0.4	-7
CCOC(=O)c1c(NC(=O)CSc2nc3ccc(C)cc3[nH]2)sc2c1CC(C)(C)NC2(C)C	.	94	.	8.5	.
O=C(CCc1nnc(CCCCc2ccccc2)o1)NC(c1cccnc1)C(F)(F)F (centres undefined)	6	0	0%	-3.5	.
COc1ccc(CNC(=O)C2CCN(S(=O)(=O)c3ccc4nc5c(c(C(=O)O)c4c3)CC(C)CC5)CC2)cc1 (centres undefined)	.	-8	.	2.1	.
Clc1ccc(CSc2nnc(-c3ccncc3)o2)c(Cl)c1	-7	11	2%	2.5	-45
O=C(O)c1ccc(CSc2n[nH]c(-c3ccco3)n2)cc1	12	-6	-5%	5.5	-47
CCSc1nc2sc3c(c2c2nnc(SCC(=O)NCc4ccco4)n12)CCCC3	.	-5	4%	15	8
Cc1ccc(N=Cc2nc(/C=C/c3cccc([N+](=O)[O-])c3)oc2O)cc1	-13	?	1%	2.7	-22
O=C(Oc1c(-c2ccccc2)c(=O)n2c3c(cccc13)CC2)c1cccc([N+](=O)[O-])c1	.	.	5%	4.6	.

Seven compounds already listed, ordered by count of non-hydrogen atoms, low to high.
SMILES	Arbovirus inh	Mtb bLac sens	Mtb H37Rv	RecA intein inh	YopH inh	others
O=C(O)c1ccc(CSc2n[nH]c(-c3ccco3)n2)cc1	12	-6	-5%	5.5	-47
O=C(COC(=O)C1CC1)NCCNC(=O)COC(=O)C1CC1	.	-1	.	-0.9	.
Cc1ccccc1CC1(CO)CCCN(C(=O)c2ccc3ncccc3c2)C1 (centres undefined)	15	-2	-1%	-3.2	.
CCSc1nc2sc3c(c2c2nnc(SCC(=O)NCc4ccco4)n12)CCCC3	.	-5	4%	15	8
O=C(Oc1c(-c2ccccc2)c(=O)n2c3c(cccc13)CC2)c1cccc([N+](=O)[O-])c1	.	.	5%	4.6	.
COc1ccc(-n2nc(C(=O)NCC(=O)N3CCCCCC3)c3ccccc3c2=O)cc1OC	.	-6	.	-0.6	.
COc1ccc(CNC(=O)C2CCN(S(=O)(=O)c3ccc4nc5c(c(C(=O)O)c4c3)CC(C)CC5)CC2)cc1 (centres undefined)	.	-8	.	2.1	.

The main list resumes, starting two compounds before the break.
SMILES	Arbovirus inh	Mtb bLac sens	Mtb H37Rv	RecA intein inh	YopH inh	others
Cc1ccc(N=Cc2nc(/C=C/c3cccc([N+](=O)[O-])c3)oc2O)cc1	-13	?	1%	2.7	-22
O=C(Oc1c(-c2ccccc2)c(=O)n2c3c(cccc13)CC2)c1cccc([N+](=O)[O-])c1	.	.	5%	4.6	.
CCc1nc2oc3ccccc3c(=O)c2c(=O)n1-c1ccc(C)cc1	.	1	-4%	1.8	.
Cc1csc(NC(=O)C2CCN(S(=O)(=O)c3ccc4c(c3)oc(=O)n4C)CC2)n1	11	-7	-2%	0.8	-69
COc1ccc(-c2cc(C(F)(F)F)n3nc(C(=O)N4CCCC4)cc3n2)cc1	-7	-3	8%	-2.0	-21	Arbovirus inh repeat=-2
CCCc1cc(NCc2ccccn2)n2c(nc3ccccc32)c1C#N	-1	3	-4%	-45	.
COc1cc2c(cc1OC)-c1cc(N3CCCCCC3)nc(=O)n1CC2	-4	-1	3%	1.5	-41
Cc1cc(NS(=O)(=O)c2ccc(NC(=O)Nc3ccccc3)cc2)no1	3	-5	-5%	0.1	-42	Arbovirus inh repeat=1
Cc1cc(=O)[nH]c2c1c(C)nn2C1CCOC(C)(C)C1 (centres undefined)	-4	6	-10%	0.7	12
Cc1ccc(C2=NN(C(=O)CCCC(=O)O)C(c3ccc4c(c3)OCO4)C2)cc1 (centres undefined)	.	11	.	-5.7	.
CCC1(O)CC(c2ccccc2)=NN1C(=O)c1ccccc1F (centres undefined)	.	38	.	0.9	.
CCC1CCCCN1C(=O)c1nn2cccnc2c1Cl (centres undefined)	5	-7	5%	-1.4	43
CCOC(=O)C1CCN(C(=O)CNC(=O)Cn2c(C)cc3ccccc3c2=O)CC1	.	-4	.	-1.6	.
CCN(CC)CCN(Cc1cc2cc3c(cc2[nH]c1=O)OCO3)C(=S)NCCCN(C)C	.	-14	.	-4.8	.
CC(=O)c1ccc(NC(=O)COc2ccccc2C(=O)Nc2ccc(C)cn2)cc1	0	4	1%	-0.7	.
CS(=O)(=O)N1CCC(C(=O)Nc2cc(Cl)ccc2Cl)CC1	-2	-11	0%	-5.0	.
O=C(NNS(=O)(=O)c1ccc(Cl)cc1)c1cc(-c2ccccc2)nc2ccccc12	11	1	-3%	-2.0	-22
O=C(c1cc(-c2ccc3c(c2)OCO3)on1)N1CCN(c2ccccc2)CC1	-19	1	4%	2.9	-55
COc1cccc(Nc2ncnc3ccccc23)c1	4	8	2%	1.9	-23
Cc1cnc2ncc3sccc3c2c1	0	-10	-6%	0.4	-26
O=C1[C@@H]2[C@@H]3C[C@@H]([C@H]4ON=C(c5ccc(Cl)cc5)[C@@H]34)[C@@H]2C(=O)N1C1CCCCC1	12	9	-2%	18	-15
Nc1cccc(-n2cccc2)c1	1	93	?	.	.
COc1ccc(C2C(C#N)=C(N)Oc3n[nH]c(C)c32)cc1Cn1nc(C)c([N+](=O)[O-])c1C (centres undefined)	-1	4	1%	84*	-21
O=C(Nc1cccc(O)c1)c1ccc2c(c1)C(=O)N(Cc1ccco1)C2=O	.	1	.	-3.1	.
CCOc1ccc(-c2noc(-c3ccncc3)n2)cc1OCC	1	57	-2%	-0.6	-22
Nn1c(SCC(=O)NCCC2=CCCCC2)nnc1C1CCCCC1	2	4	-5%	2.1	-42
O=C(Oc1ccc(/C=N/NC(=O)c2ccccn2)cc1)c1cccc(F)c1	.	81	.	0.3	.
CC(=O)Nc1ccc(NC(=O)C(C)OC(=O)c2ccc3c(c2)OCCO3)cc1 (centres undefined)	.	2	1%	0.3	.
COc1cc(C(c2nnnn2C(C)(C)C)N2CCN(C)CC2)cc(OC)c1OC (centres undefined)	1	-5	0%	-2.3	-36
Cc1c(Cl)c(C(=O)NC2CCCC2)nn1C	-2	0	1%	14	-17
CC(C)n1c(=O)c(C=Nc2ccc(Br)cc2)c(O)n(Cc2ccco2)c1=O	-21	4	43%	-0.4	-7
Cc1cc(C(=O)N/N=C/c2cc([N+](=O)[O-])ccc2O)c2ccccc2n1	-24	8	6%	17	-9
COc1cc(/C=N/NC(=O)c2cccs2)ccc1O	.	5	3%	-5.2	.
Cn1nc(C(=O)OCC(=O)Nc2ccc(S(N)(=O)=O)cc2)c2ccccc2c1=O	.	2	5%	-0.1	.
Cc1ccc(O)c(N=Nc2ccc(S(=O)(=O)N3CCCC3)cc2)c1	.	0	4%	2.4	.
O=C(CSC1CCCCC1)N1CCN(c2ccccc2)CC1	11	-11	.	1.2	-21
CCOc1ccc(N(CC(=O)NCCSCc2ccco2)S(=O)(=O)c2ccc(C)cc2)cc1	.	-4	.	-6.4	.
COc1cccc(/C=C2\CCc3ccccc3C2=O)c1	.	4	-3%	23	.
O=C(NC1CCCC1)c1ccc(S(=O)(=O)N2CCCC2)cc1	2	-6	-11%	.	-17
O=C(NCc1ccccn1)c1ccc(NS(=O)(=O)c2ccccc2)cc1	.	-4	.	-2.3	.
O=c1cn[nH]c2ccccc12	.	-7	-1%	2.4	.
CCN(c1ccc(OC)cc1)S(=O)(=O)c1csc(C(N)=O)c1	.	6	.	-3.9	.
Cc1sc2nc(SCC(=O)N3CCCCC3)[nH]c(=O)c2c1C	-4	-4	1%	2.1	-35
C/C=C\C(=O)Nc1cccc(C2=NOC3(C2)C[C@H](C(N)=O)N(C(=O)[C@H]2CCC(=O)N2)C3)c1 (some centres undefined)	.	-1	-9%	-1.2	.
CC(C)OC(=O)CSc1nnc(-c2ccccn2)n1N	.	-6	-13%	0.5	.
C=CCn1c(O)c(N=NC(=O)CNC(=O)c2cccs2)c2ccccc21	-8	4	-2%	-1.6	-20
Cc1cccc(-n2ncc3c(N4CCCC4)ncnc32)c1	-7	13	7%	1.6	10
COc1cc(C2C(C#N)=C(N)OC3=C2C(=O)CC(C)(C)C3)cc2c1OCO2 (centres undefined)	.	-2	.	1.6	.
CC(C)C(=O)N1CCN(c2ccc(NC(=O)c3cccs3)cc2)CC1	0	-11	9%	0.3	30
C=CCn1c(SCC(N)=O)nc2sc3c(c2c1=O)CCC3	.	0	.	-2.6	.
CCCN(CCC)S(=O)(=O)c1ccc(C(=O)Nc2cccnc2)cc1	.	0	.	0.3	.
O=C(c1nc2ccc(Cl)cn2c1CN1CCCC(CO)C1)N1CCc2ccccc2C1 (centres undefined)	.	?	.	2.1	.
CCn1c(SCc2ccc(C(=O)O)cc2)nnc1-c1ccc(Cl)cc1	.	0	.	0.8	.
CC(C)(C)c1ccc(C(=O)Nc2cccc([N+](=O)[O-])c2)cc1	-2	-3	54%	9.8	-23
Cc1cc(=O)oc2cc(N3C(=O)CC(Cc4ccccc4)C3=O)ccc12 (centres undefined)	3	2	-14%	-0.8	.
O=C(O)COc1ccc(Oc2ccccc2)cc1	-5	41	-3%	-3.1	2
COc1cc(/C=C(\C#N)c2ccccn2)ccc1OCC(=O)Nc1cccc(C(F)(F)F)c1	-35	-7	1%	-49	-5
CCc1cccc(C)c1NC(=O)CN(C)Cc1ccc(Br)cc1	42*	11	17%	3.8	.
O=C(Nc1cc(Cl)ccc1C(=O)O)c1ccc(CN2C(=O)c3ccccc3C2=O)cc1	.	-7	.	-4.6	.
NS(=O)(=O)c1cccc(NC(=O)c2cccc(-c3ccc(O)cc3)c2)c1	.	9	.	5.3	.
O=C(O)C1(c2ccccc2)CCN(S(=O)(=O)c2ccc(Br)cc2)CC1	.	-5	.	-0.4	.
O=C(O)C(=O)/C(=C\c1ccc(Cl)cc1)c1ccc2ccccc2n1	4	-6	2%	-4.9	.

Other compounds
SMILES	Arbovirus inh	Mtb bLac sens	Mtb H37Rv	RecA intein inh	YopH inh	others
O=C(COC(=O)c1ccco1)Nc1nnc(-c2ccccc2)o1	.	57	.	-0.3	.
C/C(N)=C(/C#N)C(=O)COC(=O)CC1CCCC1	.	56	-7%	-1.3	-17
O=C(CCN1CCN(CCO)CC1)Nc1ccc(F)c(F)c1	-1	-5	0%	-1.8	-34	Arbovirus inh repeat=2
Cc1nn(CCC(N)=S)c2nc(-c3cccs3)cc(C(F)(F)F)c12	-15	7	11%	-0.5	-2
O=C(NC1CCCC1)C(c1ccc(Cl)cc1)N1CCOCC1 (centres undefined)	1	-1	-1%	12	2	Arbovirus inh repeat=2

Molecules listed so far that contain a cyano group (six):
SMILES	Arbovirus inh	Mtb bLac sens	Mtb H37Rv	RecA intein inh	YopH inh	others
COc1cc(OC)c(OC)cc1C#N	1	6	1%	-1.5	.	Arbovirus inh repeat=9
CCCc1cc(NCc2ccccn2)n2c(nc3ccccc32)c1C#N	-1	3	-4%	-45	.
COc1ccc(C2C(C#N)=C(N)Oc3n[nH]c(C)c32)cc1Cn1nc(C)c([N+](=O)[O-])c1C (centres undefined)	-1	4	1%	84*	-21
COc1cc(C2C(C#N)=C(N)OC3=C2C(=O)CC(C)(C)C3)cc2c1OCO2 (centres undefined)	.	-2	.	1.6	.
COc1cc(/C=C(\C#N)c2ccccn2)ccc1OCC(=O)Nc1cccc(C(F)(F)F)c1	-35	-7	1%	-49	-5
C/C(N)=C(/C#N)C(=O)COC(=O)CC1CCCC1	.	56	-7%	-1.3	-17

Some of the compounds tested. The share of hits here may be higher or lower than overall.
